High-throughput results: PubChem, several laboratories
PKD1 kinase inh: inhibitors of human PKD1 kinase; Q15139; PKD1 kinase fluorescence polarization assay; inhibition, %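 (about 10 µM by stock and volumes)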; actives 0.056% (n = 200,000); AID 797;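 active means inhibition of 50% or more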;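 further: controls were vehicle for no effect and a reference inhibitor for full effect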
Target sequence (Q15139 whole entry, looked up): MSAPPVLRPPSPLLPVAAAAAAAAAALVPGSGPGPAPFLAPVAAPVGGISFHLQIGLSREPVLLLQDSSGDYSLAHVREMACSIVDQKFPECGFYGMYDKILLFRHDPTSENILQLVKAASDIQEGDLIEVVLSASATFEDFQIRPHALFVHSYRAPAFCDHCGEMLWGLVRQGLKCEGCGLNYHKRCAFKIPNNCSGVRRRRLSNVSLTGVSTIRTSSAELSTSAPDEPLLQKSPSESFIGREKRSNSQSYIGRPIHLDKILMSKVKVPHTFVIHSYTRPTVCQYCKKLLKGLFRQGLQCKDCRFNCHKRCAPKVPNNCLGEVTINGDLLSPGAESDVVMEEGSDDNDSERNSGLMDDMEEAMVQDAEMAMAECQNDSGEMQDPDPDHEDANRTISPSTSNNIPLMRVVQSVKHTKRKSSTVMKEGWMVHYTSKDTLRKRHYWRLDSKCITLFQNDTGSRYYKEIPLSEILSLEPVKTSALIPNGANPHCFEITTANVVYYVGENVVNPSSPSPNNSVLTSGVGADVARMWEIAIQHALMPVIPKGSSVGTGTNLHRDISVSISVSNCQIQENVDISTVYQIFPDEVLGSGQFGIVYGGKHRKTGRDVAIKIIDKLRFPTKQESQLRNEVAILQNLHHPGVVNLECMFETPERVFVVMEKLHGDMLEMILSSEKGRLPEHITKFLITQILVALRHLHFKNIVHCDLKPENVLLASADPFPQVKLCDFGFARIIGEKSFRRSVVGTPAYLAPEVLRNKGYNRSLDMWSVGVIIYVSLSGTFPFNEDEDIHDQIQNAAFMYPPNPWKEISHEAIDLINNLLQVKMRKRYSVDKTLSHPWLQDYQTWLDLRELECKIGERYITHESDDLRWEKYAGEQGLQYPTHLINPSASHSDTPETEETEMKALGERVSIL
RGS16-Gao: RGS16-Galphao interaction regulator (human); binding response (% of control), % at 10 µM; O15492+P09471; actives 0.38% (n = 220,000); AID 1441; bead-based flow cytometry RGS16-Galphao binding, fluorescence; actives lie on both sides;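 active means below 25% or above 175%, edge rows of some plates excepted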;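 further: Galphao activated by GDP with aluminum fluoride before binding; 100% = wells without compound and 0% = beads without RGS; some results beyond the cut were filed as inactive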
HSV replic up: increases HSV replication in cells; actives 0.005% (n = 220,000); maximum fold increase; HSV replication augmentation in cells, fold increase;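 active means peak rise of 1.5-fold or more in the series; tested in PC3 cells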;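 further: first round at 10 µM; read as green reporter fluorescence; hits show the peak of a series up to 25 µM; 1 = signal of infected wells without compound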
Insulin prom inh: TRM-6 insulin promoter activity inhibition. actives 0.9% (n = 130,000). TRM-6 cells (human fetal islet line), insulin promoter-eGFP reporter, imaging; reporter expression induced with tamoxifen. inhibition, % at 2 µM;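 active means inhibition above the mean plus 3 SD, with well images judged a real hit on visual review, cut at about 60% in these data, passing the limit was not always enough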
GALR2 agonist: GALR2 (human) receptor agonism; O43603; GALR2-expressing cells, agonist activation read-out; activation, %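 (tested at 5 µM)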; actives 0.48% (n = 140,000); AID 803;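 active means above mean plus 3 SD of all compounds, about 5% in these data, not always enough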;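 further: 0% = vehicle buffer wells and 100% = reference agonist at full effect; tested in CHO reporter cells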
Insulin prom inh cell count: also measured in Insulin prom inh; calls as there; normalized cell count, %; measured here: cell count, toxicity; reference of the scale not given here;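 cells exposed to compound for 48 h; stained nuclei by imaging scaled within each plate; lower means fewer cells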
HSV replic up primary fold: also measured in HSV replic up; calls as there; fold increase; compound at 10 µM; measured here: primary screen fold increase 10 uM; tested in PC3 cells;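 GFP signal in the first replicate; 1 = infected wells without compound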
The depositor's hits bear a star; i = inactive; / = not tested or not shown.

The first 2 records, ahead of the listing:
SMILES | PKD1 kinase inh | RGS16-Gao | HSV replic up | HSV replic up primary fold | Insulin prom inh | Insulin prom inh cell count | GALR2 agonist
Cc1cc2c(s1)c1cnn(CC(=O)NCCc3ccccc3)c(=O)c1n2C | -15 | 101 | i | 0.98 | / | / | -0.2
O=C(NCC1CCCO1)C(c1cccs1)N(C(=O)c1ccc(-c2ccccc2)[nH]1)C1CCCC1 (centres undefined) | 2 | 86 | i | 0.92 | 7 | 57 | -1.1

The list itself, repeating the preview:
SMILES | PKD1 kinase inh | RGS16-Gao | HSV replic up | HSV replic up primary fold | Insulin prom inh | Insulin prom inh cell count | GALR2 agonist
Cc1cc2c(s1)c1cnn(CC(=O)NCCc3ccccc3)c(=O)c1n2C | -15 | 101 | i | 0.98 | / | / | -0.2
O=C(NCC1CCCO1)C(c1cccs1)N(C(=O)c1ccc(-c2ccccc2)[nH]1)C1CCCC1 (centres undefined) | 2 | 86 | i | 0.92 | 7 | 57 | -1.1
Cc1onc(-c2ccccc2)c1C(=O)c1c[nH]c(C(=O)NCc2ccccn2)c1 | 4 | 100 | i | 0.87 | -44 | 122 | /
C/C(=N\S(=O)(=O)c1ccc(C)cc1)NC(=S)Nc1ccccc1 | -4 | 103 | i | 0.89 | / | / | /
CC(=O)N/C(=C/c1ccc2c(c1)OCO2)C(=O)O | -3 | 68 | i | 1 | / | / | /
COC(=O)CN1C(c2ccccc2)=Nc2ccc(Cl)cc2C1c1ccccc1 (centres undefined) | 9 | 104 | i | 1.1 | -23 | 90 | -1.7
COc1ccc2cc(/C=C3\SC(=S)NC3=O)c(N3CCOCC3)nc2c1 | -7 | 68 | i | 1 | 14 | 111 | -0.7
COC(=O)CSc1nnc(C)n1-c1cccc(OC)c1 | -1 | 107 | i | 0.93 | -14 | 77 | -1.7
Cc1cc(C)cc(NCc2cc3c(cc2[N+](=O)[O-])OCO3)c1 | -1 | 107 | i | 1.1 | 0 | 84 | -2.2
COc1ccc(C)cc1NC(=O)C(Sc1nncn1C)c1ccccc1 (centres undefined) | 1 | 106 | i | 0.88 | 33 | 127 | /
Cc1ccccc1C(=O)N/N=C1/SCC(=O)N1Cc1ccc2c(c1)OCO2 | -1 | 60 | i | 0.98 | -31 | 146 | 0.8
COc1ccc(-n2ccnc2CN2CCN(C3CCCC3)C(CCO)C2)cc1 (centres undefined) | -2 | 148 | i | 1.2 | 0 | 99 | /
CCOc1cc(NS(=O)(=O)c2ccc(Cl)cc2)c(OCC)cc1NC(=O)CC(C)C | -2 | 96 | i | 1.3 | -3 | 89 | -0.6
Cc1onc(C(=O)NCc2ccccn2)c1[N+](=O)[O-] | -2 | 100 | / | / | 15 | 102 | /
COC(=O)CCN(C(=O)c1ccc(N2CCCCC2)c([N+](=O)[O-])c1)c1ccccn1 | -5 | 104 | i | 0.98 | / | / | /
Cc1ccc(S(=O)(=O)N2CCC(C(=O)OC(C)C(=O)NC(N)=O)CC2)cc1C (centres undefined) | / | 87 | i | 0.99 | / | / | /
CC(=O)c1c(O)cc(=O)n(-c2ccccc2)c1-c1ccc(Cl)cc1 | -3 | 103 | i | 1.1 | 14 | 107 | -0.5
Clc1ccc(-c2nnc(NCc3ccccc3)c3ccccc23)cc1 | 3 | 86 | i | 0.98 | / | / | 0.0
Cc1nc(SCC(=O)Nc2c(C)n(C)n(-c3ccccc3)c2=O)[nH]c(=O)c1C | -10 | / | i | 0.86 | 19 | 98 | -2.1
CCOc1ccccc1N1CCN(S(=O)(=O)CC)CC1 | -12 | 97 | i | 0.94 | / | / | -1.6

Record cards (already shown). Order of screens: PKD1 kinase inh	RGS16-Gao	HSV replic up	HSV replic up primary fold	Insulin prom inh	Insulin prom inh cell count	GALR2 agonist
`COC(=O)CN1C(c2ccccc2)=Nc2ccc(Cl)cc2C1c1ccccc1` (centres undefined) is entered as 9	104	i	1.1	-23	90	-1.7
`Cc1nc(SCC(=O)Nc2c(C)n(C)n(-c3ccccc3)c2=O)[nH]c(=O)c1C` is entered as -10	/	i	0.86	19	98	-2.1
`Cc1onc(-c2ccccc2)c1C(=O)c1c[nH]c(C(=O)NCc2ccccn2)c1` is entered as 4	100	i	0.87	-44	122	/
`COc1ccc(C)cc1NC(=O)C(Sc1nncn1C)c1ccccc1` (centres undefined) is entered as 1	106	i	0.88	33	127	/
`O=C(NCC1CCCO1)C(c1cccs1)N(C(=O)c1ccc(-c2ccccc2)[nH]1)C1CCCC1` (centres undefined) is entered as 2	86	i	0.92	7	57	-1.1

Next results.
SMILES | PKD1 kinase inh | RGS16-Gao | HSV replic up | HSV replic up primary fold | Insulin prom inh | Insulin prom inh cell count | GALR2 agonist
CC(=O)c1cc(F)c(N2CCCCCC2)cc1C | -8 | 98 | i | 0.93 | 13 | 147 | 0.1
Cc1nnsc1C(=O)NC(C)c1ccccc1 (centres undefined) | -3 | 106 | i | 0.88 | 8 | 172 | /
Cc1c(NC(=O)CSc2nnc3sc4ccccc4n23)c(=O)n(-c2ccccc2)n1C | -3 | 99 | i | 0.8 | -3 | 78 | -0.2
COCCn1c(SCC(=O)N2CCCC2)nnc1C(C)C | 21 | 97 | i | 0.88 | / | / | -0.3
NC(=O)N/N=C/c1coc2ccc3ccccc3c2c1=O | / | 105 | i | 1.1 | / | / | /
COc1ccccc1C(=O)N/C(=C/c1cccc([N+](=O)[O-])c1)C(=O)Nc1cccc(C(=O)O)c1 | -5 | 103 | i | 0.97 | / | / | /
CS(=O)(=O)c1cccc(C(=O)NC(c2ccccc2)c2ccccc2)c1 | -6 | 107 | i | 0.96 | 14 | 69 | -0.9
Cc1ccc2cc(C#N)c(N3CCCN(C(=O)C4CCCO4)CC3)nc2c1 (centres undefined) | -1 | 101 | i | 0.9 | / | / | -0.2
COc1ccc(-n2cnc3cc(NCc4ccccn4)ccc32)cc1 | -1 | 101 | i | 0.87 | -3 | 185 | -3.8
Cn1c(=O)n(C)c(=O)n(CC(=O)N2CCCCC2)c1=O | -4 | 39 | i | 0.88 | 72 | 100 | -0.6
O=[N+]([O-])c1cc(CN2CCCC2)ccc1Sc1ccc(Cl)cc1 | 10 | 103 | i | 0.74 | / | / | /
CS(=O)(=O)N1CCN(C(=O)c2cc(-c3cccnc3)nc3ccc(Cl)cc23)CC1 | 2 | 101 | i | 0.95 | / | / | /
COc1cc(-c2n[nH]c(=S)n2-c2cc(C(F)(F)F)ccc2Cl)cc(OC)c1OC | -9 | 86 | i | 1.1 | -27 | 108 | 0.6
c1ccc(-c2nnc3sc(-c4csc5c4CCCC5)nn23)cc1 | -7 | 38 | i | 0.86 | -7 | 74 | -0.3
N#CC(C#N)=C1CCc2ccccc2N1 | 3 | 59 | i | 0.88 | 56 | 80 | -1.0
O=S(=O)(c1ccc(N2CCOCC2)cc1)N1CCOCC1 | -7 | 101 | i | 1 | -11 | 75 | -0.3
COc1cccc2cc(C(=O)N3CCN(C45CC6CC(CC(C6)C4)C5)CC3)c(=O)oc12 | -3 | -34 | i | 0.84 | -39 | 82 | -0.4
CCc1nn(CC(=O)O)c(=O)c2ccccc12 | -4 | 103 | i | 0.94 | 3 | 86 | -1.1
OC1CCN(c2ncnc3c2nnn3Cc2c(F)cccc2Cl)CC1 | 0 | / | / | / | / | / | -1.8
O=C(COC(=O)Cc1ccc(-c2ccccc2)cc1)NCc1ccc(F)cc1 | 0 | 153 | i | 1 | 15 | 73 | -2.1
Clc1cccc(-c2nnc(SC/C=C/c3ccccc3)n2Cc2ccco2)c1 | -10 | 102 | i | 1 | -40 | 153 | -0.9
COc1ccc(-c2cc3nc(-c4ccccc4)cc(N4CCC(O)CC4)n3n2)cc1 | -8 | 106 | i | 0.78 | / | / | /
O=C1CC(c2ccccc2)CC(O)=C1C=NCCCO (centres undefined) | 2 | 63 | i | 0.86 | 3 | 94 | -3.2
COc1ccccc1C(=O)NC(=O)Nc1nc(-c2ccccc2)cc(C(F)(F)F)n1 | / | 102 | i | 0.9 | / | / | /
CCCn1c(=O)c2ccccc2n2c(SCC(=O)c3ccccc3)nnc12 | -9 | 106 | i | 0.92 | / | / | -2.2
Cc1cccc(NC(=O)CC2C(=O)NC3CCCCC3N2C(=O)c2ccccc2Cl)c1 (centres undefined) | / | 100 | i | 1.1 | / | / | /
O=C(NCCNC(=O)c1cccs1)c1ccco1 | 0 | 105 | i | 0.99 | 14 | 94 | -0.6
COc1cc(C2Nc3ccc4ncccc4c3C3=C2C(=O)CCC3)ccc1O (centres undefined) | -14 | 102 | i | 0.49 | -58 | 96 | -0.5
COc1ccccc1NC(=O)CSc1nc2n[nH]c(C)c2c(=N)n1-c1ccccc1Cl | -6 | 78 | i | 0.78 | -42 | 131 | -1.4
CCCN1CNc2c(c(=O)[nH]c(=S)n2-c2ccc(Cl)cc2)C1 | -9 | 105 | i | 1 | 40 | 109 | /
CN(C(=O)COC(=O)c1ccccc1SCC(=O)NC1CCCCCCC1)C1CCS(=O)(=O)C1 (centres undefined) | -7 | 104 | i | 0.9 | 6 | 99 | -1.6
Cc1cc(=O)oc2c1c(C(F)(F)F)nn2-c1ccccc1 | / | 108 | i | 1.2 | / | / | /
CC(=O)N1CCCc2cc(S(=O)(=O)NC(C(=O)NC(C)c3ccccc3)C(C)C)ccc21 (centres undefined) | -3 | 107 | i | 1 | / | / | -0.6
CCC(C)N1C(=O)C2C(C(=O)Nc3cccc(OC)c3)C3C=CC2(O3)C1C(=O)NC1CCCCC1C (centres undefined) | 0 | 87 | i | 0.98 | / | / | -0.1
Nc1nc(-c2cccs2)c(NC(=O)c2ccccc2)s1 | -2 | 114 | i | 0.71 | / | / | -1.8
CC(C)CN(C(=O)COC(=O)c1ccccc1SCC(=O)NC1CCCCCC1)C1CCS(=O)(=O)C1 (centres undefined) | -9 | 102 | i | 0.98 | / | / | 0.3
NNC(=O)Cn1c(-c2ccccc2)cc(=O)n2ncnc12 | / | 103 | i | 0.96 | / | / | /
CC1(C)[C@H]2CC[C@]1(C)[C@@H](OC(=O)C[N+]1(C)CCOCC1)C2 | / | 98 | i | 1.1 | / | / | /
O=C(Oc1ccc(-c2nc(-c3ccccn3)no2)cc1)c1ccccc1 | -8 | 107 | i | 1 | 19 | 163 | -2.9
O=C(CSc1nc2ccccc2c(=O)n1CCCN1CCOCC1)N1CCN(c2ccccc2)CC1 | -7 | 105 | i | 1 | / | / | /
CNC(=O)c1sccc1SCc1ccc(Cl)cc1Cl | 3 | 129 | i | 1 | -52 | 74 | -2.2
Cc1ccc2oc3c(c(=O)c2c1)C(c1cccc(Br)c1)N(Cc1ccco1)C3=O (centres undefined) | -5 | 108 | i | 0.93 | 17 | 72 | -2.3
O=C(/C=C/c1ccco1)NC(=S)Nc1ccc(O)c(-c2nc3ccccc3s2)c1 | -7 | 93 | i | 0.98 | / | / | -0.8
Cc1occc1C(=O)NCc1ccc(C(=O)O)o1 | 3 | 106 | i | 0.94 | -51 | 107 | -1.6
O=C(CCc1ccccc1)NNC(=O)COc1ccccc1 | -16 | 79 | i | 1.1 | / | / | -2.2
O=C1CC(C(=O)Nc2cccc(F)c2)n2ncnc2N1 (centres undefined) | -1 | 107 | i | 1 | -9 | 109 | /
CC(=O)NCc1ccc(-c2nc3ccccc3s2)cc1 | -6 | 101 | i | 0.87 | / | / | /
Cc1ccc(/C=C/C(=O)O)cc1S(=O)(=O)NC1CCS(=O)(=O)C1 (centres undefined) | -3 | 100 | i | 0.91 | / | / | /
Cc1csc(Nc2ccccc2)[n+]1-c1ccccc1 | -7 | 101 | i | 1 | 27 | 53 | /
O=C(Cn1cnc2c(oc3ccccc32)c1=O)N1CCCC1 | 3 | 97 | i | 0.96 | 26 | 150 | /
Cc1nc2ccccc2c(=O)n1NC(=O)/C=C/c1ccccc1 | -2 | 87 | i | 0.85 | -14 | 138 | 1.1
CCOc1cc(N2CCOCC2)c(OCC)cc1NC(=O)CSc1ncccn1 | -4 | 98 | i | 0.83 | / | / | /
O=C(NCc1ccncc1)NC12CC3CC(CC(C3)C1)C2 | -5 | 101 | i | 0.98 | / | / | /
Fc1ccc(CNc2cnccn2)cc1 | 0 | 98 | i | 0.9 | -17 | 84 | -3.5
CC(=O)c1cccc(NC(=O)c2ccc(C)o2)c1 | 0 | 102 | i | 0.95 | 8 | 107 | /
CCc1cc2c(=O)c(-c3nc(C)cs3)coc2cc1OC(C)C(=O)NCCO (centres undefined) | -1 | 110 | i | 0.91 | 7 | 111 | 0.5
O=C(NCCCN1CCN(c2ccccc2)CC1)Nc1ccccc1C(F)(F)F | 2 | 97 | i | 0.99 | 17 | 121 | -1.4
Cc1ccc(S(=O)(=O)/C(C#N)=C/c2c(N3CC(C)OC(C)C3)nc3c(C)cccn3c2=O)cc1 (centres undefined) | -1 | 103 | i | 0.73 | 3 | 91 | 0.7
Cc1cc(NC(=O)c2ccccc2O)nc(C)n1 | -11 | 98 | i | 0.91 | -64 | 126 | /
CC(=O)c1ccc(NC(=O)CSc2nc(=O)cc(N)n2-c2ccccc2)cc1 | -4 | 99 | i | 1 | / | / | /
